# Ecoli growth = blocks Escherichia coli growth | OD600 absorbance (concentration not given with the values) | actives 0.21% (n = 330,000) | OD600, 23 h; active compounds read low;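 active = OD600 absorbance below the run mean of sample wells minus 3.6 SD, in any replicate, cut at about 0.56 in these data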;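 also: stock transfer was 300 nL into about 60 µL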
# rRNA inh HTS = inhibitors of bacterial rRNA selective over humanized ribosomes | E. coli WT GFP vs humanized-ribosome RFP mutants, fluorescence, 24 h; active compounds read low; DMSO median 0, no signal -100 | GFP signal change (wild-type ribosome), % (no concentration beside the values) | actives 1.6% (n = 350,000) | AID 720706;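 active = significant combined selectivity score with lowered wild-type GFP, culture density cut under 30%, mutant RFP and density less affected; inactive = any of these conditions unmet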; also: one replicate is shown; some compounds called inactive have numbers as strong as hits
# HNF4A DNA FP = change in binding of human HNF4 alpha to DNA; P41235; HNF4a-FITC DNA binding, fluorescence polarization, 1 h; activity change, % at 10 µM; actives 0.3% (n = 360,000); AID 1224865; in the data active = activity change above about 30%, passing the limit was not always enough;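 also: controls were the assay level and a saturating level of protein; the project sought stronger binding though the title names inhibitors; some compounds called inactive have numbers as strong as hits; positive values seem to mean higher polarization but the record does not say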
# Target sequence (P41235 whole entry, looked up): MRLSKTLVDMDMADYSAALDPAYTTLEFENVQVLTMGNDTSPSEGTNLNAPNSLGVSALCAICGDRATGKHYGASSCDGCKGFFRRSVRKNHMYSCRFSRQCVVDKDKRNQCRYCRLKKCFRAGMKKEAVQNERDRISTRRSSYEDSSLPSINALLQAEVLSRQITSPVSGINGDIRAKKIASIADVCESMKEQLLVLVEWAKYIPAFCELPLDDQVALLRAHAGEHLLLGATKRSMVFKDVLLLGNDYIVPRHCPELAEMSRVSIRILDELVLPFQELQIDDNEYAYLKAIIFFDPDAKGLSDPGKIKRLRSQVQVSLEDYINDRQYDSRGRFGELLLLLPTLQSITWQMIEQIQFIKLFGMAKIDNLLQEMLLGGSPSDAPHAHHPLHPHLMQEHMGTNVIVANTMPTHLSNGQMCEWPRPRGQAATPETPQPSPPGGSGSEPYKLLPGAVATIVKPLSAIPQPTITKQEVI
# ALR H2O2 inh = blocks human ALR sulfhydryl oxidase activity. P55789. purified ALR, DTT oxidation, H2O2 HRP-luminol luminescence. inhibition, % (test concentration not listed). actives 3.8% (n = 290,000). AID 485317;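 active = mean and each replicate at 75% or more; inconclusive = only one of the two met; inactive = neither met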;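 also: stock transfer was 7.5 nL into about 7.5 µL; 0% = neutral wells and 100% = wells with inactivated enzyme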
# Target sequence (P55789 whole entry, looked up): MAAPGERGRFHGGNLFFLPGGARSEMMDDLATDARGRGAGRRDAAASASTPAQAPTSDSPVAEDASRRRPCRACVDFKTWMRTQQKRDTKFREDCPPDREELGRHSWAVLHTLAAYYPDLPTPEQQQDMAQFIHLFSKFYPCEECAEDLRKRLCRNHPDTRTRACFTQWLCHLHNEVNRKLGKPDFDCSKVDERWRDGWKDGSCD
# FGF22 binding = FGF22 (human) thermal shift binding. AID 651658. Q9HCT0. actives 1.5% (n = 340,000). calls only at 9.99 µM. recombinant FGF22 thermal shift, SYPRO orange fluorescence; percent of sucrose octasulfate shift, DMSO zero;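 active = melting point raised past a set limit in the mean and every replicate; inconclusive = no clear call; three in four hits are not shown here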
# Target sequence (Q9HCT0 whole entry, looked up): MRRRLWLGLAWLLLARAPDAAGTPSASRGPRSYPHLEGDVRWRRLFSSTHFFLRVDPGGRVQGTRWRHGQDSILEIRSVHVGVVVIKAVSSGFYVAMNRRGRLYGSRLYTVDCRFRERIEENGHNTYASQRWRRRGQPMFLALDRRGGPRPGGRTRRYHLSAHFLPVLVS
# MLL AF4-AF9 inh = inhibitors of human MLL-AF4/AF9 interaction; P42568; actives 0.47% (n = 350,000); AlphaScreen, biotin-AF4 peptide binding to FLAG-AF9; inhibition, % at 10 µM;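 active = every replicate reaching a set inhibition limit, whatever the replicate mean, cut at about 25% in these data; inconclusive = mean inhibition reaches that limit but some replicates miss it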;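 also: 0% = plate neutral control median and 100% = total signal loss; the record names both 10 and 1 µM as test concentration; the first replicate is given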
# Vif A3G = inhibitors of Vif binding to APOBEC3G peptide, primary screen, biochemical, TR-FRET, GST-Vif 1-94, biotin-A3G peptide, dose response retest (AID 1117319); one-dose inhibition, %; IC50 in µM for titrated hits; actives 0.57% (n = 260,000); TR-FRET GST-Vif / biotin-A3G peptide binding; higher % means a stronger effect; test concentration not given here; strong numbers were not always called active;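 active = above the screen mean plus three standard deviations and confirmed in dose response; inconclusive = results disagree or hit not tested in dose response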;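 also: Vif residues 1-94 fused to GST binding biotinylated APOBEC3G peptide 110-148; 0% = full assay without inhibitor and 100% = GST in place of GST-Vif; retest series ran down from 100 µM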
# rRNA inh HTS OD600 = recorded beside rRNA inh HTS, whose call it bears; OD600 change, %; measured here: OD600 growth;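 optical density of the mix in the first replicate; 0 = DMSO median and -100 = no signal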
# rRNA inh HTS RFP = recorded beside rRNA inh HTS, whose call it bears; RFP signal change, %; measured here: RFP humanized mutant strains;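 first replicate; 0 = DMSO median and -100 = no signal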
# * marks the source's active call; other numbers are inactive results; i = inactive; ? = inconclusive; . = no result given; & = joins results of further samples. This is a subset; the hit share may differ from the screen's.
SMILES,Ecoli growth,rRNA inh HTS,rRNA inh HTS OD600,rRNA inh HTS RFP,HNF4A DNA FP,ALR H2O2 inh,FGF22 binding,MLL AF4-AF9 inh,Vif A3G
CCNC(=O)C[C@@H]1CC[C@@H]2[C@H](COc3ccc(NC(=O)c4ccc(F)cc4)cc3C(=O)N2C)O1,.,3,3,-2.5,.,.,i,-0.9,.
CC(C)NC(=O)N(C)C[C@H]1Oc2ncc(C#Cc3ccc(F)cc3)cc2C(=O)N([C@H](C)CO)C[C@H]1C,.,-2,1,-1.8,.,.,i,1.5,.
COc1ccc(OC)c(NC(=O)c2ccc(Cl)cc2)c1,0.68,-18,-22,-1.1,3.1,-7,i,-0.1,9%
CN1CCN(S(=O)(=O)c2ccc(NN)nc2)CC1,0.69,13,12,-0.9,-1.7,0,i,6.1,-2%
COc1cc2c(cc1OC)C(C(=O)NCc1ccco1)C(c1cccs1)N(C)C2=O (centres undefined),0.69,3,-2,1.9,6.4,1,.,.,-5%
Cc1noc(C)c1NC(=O)Nc1cccc2c1O[C@@H](CN(C)Cc1ccc3c(c1)OCO3)[C@H](C)CN([C@@H](C)CO)C2=O,.,-3,0,-1.3,.,.,i,-0.2,.
Cc1onc(-c2ccccc2)c1CNS(=O)(=O)c1ccc(F)cc1F,0.7,-18,-22,-2.9,0.4,-3,i,0.6,7%
O=C(O)c1cccc(N/N=C(\N=Nc2ccccc2)c2ccccc2)c1,.,-6,14,-13,1.4,98*,i,-0.1,.
COc1ccc(NC(=O)N(C)C[C@H]2Oc3ccc(NS(=O)(=O)c4ccc(F)cc4)cc3C(=O)N([C@@H](C)CO)C[C@H]2C)cc1,.,0,1,-1.2,.,.,i,-2.3,.
Cc1cccc(N2C(=O)CC(N3CCOCC3)C2=O)c1 (centres undefined),0.8,.,.,.,-0.7,-7,.,.,-2%
CCOC(=O)N1CCC(NC(=O)CSc2cc(=O)n(CC)c3ccccc23)CC1,0.7,.,.,.,5.1,-6,.,.,17%
CN(C)c1nc(Oc2ccc(C(=O)OCC(=O)Nc3ccccc3)cc2)nc(N(C)C)n1,0.75,.,.,.,-2.2,-22,.,.,-3%
COc1ccc(CN2C(=O)c3ccccc3C2c2nnnn2C(C)C)cc1 (centres undefined),.,8,0,2.7,-2.7,.,i,-1.3,.
Cc1nc(-c2ccccc2)sc1C(=O)NS(=O)(=O)c1ccc(CN2CCN(c3ccccc3)CC2)cc1,.,-41,-74,-18,4.0,.,i,13,.
Cc1ccccc1S(=O)(=O)N1[C@H](C#N)[C@@H](c2ccc(C#CC3CCCCC3)cc2)[C@@H]1CO,.,5,11,2.2,.,.,i,1.0,.
C/C=C/c1ccc([C@H]2[C@@H](CO)N3CCCCN(C(=O)Nc4cc(F)ccc4F)C[C@H]23)cc1,.,-1,-21,19,.,.,i,8.9,.
CC(C)OC(=O)NCCOC(=O)Nc1cccc(Cl)c1,0.62,.,.,.,-0.3,-4,.,.,-8%
O=C(CCN1C(=O)c2ccccc2C1=O)C1=NN[C@@H]2C(=O)N(c3ccc(F)cc3)C(=O)[C@H]12,.,.,.,.,1.3,2,.,.,7%
Cc1ccc2oc(C(=O)N(C)Cc3ccc(C)o3)c(C)c2c1,0.67,-30*,-14*,-0.9*,-0.7,12,i,-8.5,0%
CCn1c(COc2ccc(C)cc2)nnc1SCc1ccc(C#N)cc1,0.68,-51,-76,-26,1.7,-1,i,0.0,-7%
COc1ccc(CNC(=O)C(NS(=O)(=O)c2cccc3nsnc23)C(C)C)cc1 (centres undefined),0.67,12,0,-2.6,1.2,8,i,-0.4,.
Cc1cc(Br)ccc1N=C1NC(=O)CS1,0.66,-3,-9,-8.0,-1.1,0,.,0.4,.
C[C@@H](C(=O)OCn1nnc2ccccc2c1=O)N1C(=O)C2CCCCC2C1=O (some centres undefined),0.7,8,-4,-0.2,-2.9,-9,i,-1.4,-1%
C/C(=N\OC(=O)c1ccc(Br)cc1)c1ccccn1,.,3,-1,-1.9,2.0,-17,i,-16,-4%
COc1ccccc1N1CCN(C(=O)c2c(-c3c(F)cccc3Cl)noc2C)CC1,0.69,-4,-11,-2.0,0.2,.,i,2.3,13%
O=C1CC(c2ccccc2)Oc2ccc(Cl)cc21 (centres undefined),0.67,-51,-74,-16,3.9,.,i,1.3,0%
CCOC(=O)Cn1c(=O)oc2cc(S(=O)(=O)Nc3cc(Cl)ccc3OC)ccc21,0.72,4,-11,1.2,0.7,-10,i,0.0,28%
CC(C)(C)C1CCC(=NNC(=O)CN(c2ccccc2)S(C)(=O)=O)CC1 (centres undefined),0.67,2,5,2.2,-1.4,10,i,-0.5,1%
COc1ccc([N+](=O)[O-])cc1NC(=O)Nc1ccccc1,0.67,.,.,.,-1.2,.,.,.,13%
CO[C@H](CN(C)C(=O)c1ccc2c(c1)OCO2)[C@@H](C)CN([C@H](C)CO)S(=O)(=O)c1ccc(F)cc1,.,-5,2,-3.2,.,.,i,?,.
O=S(=O)(CC12C3C4C5C1C2C(Br)(C43)C51OCCO1)c1ccccc1 (centres undefined),0.7,1,6,-2.0,-0.9,-23,i,-7.3,.
CCc1cccc(OCC(=O)Nc2c[nH]c(=O)[nH]c2=O)c1,0.71,6,14,-0.7,-0.4,1,i,-0.4,.
COc1ccc(NC(=O)Nc2cccc3c2O[C@H](CN(C)S(C)(=O)=O)[C@H](C)CN([C@@H](C)CO)C3=O)cc1,.,-1,-3,-0.2,.,.,i,-0.3,.
C[C@H](CO)N1C[C@H](C)[C@@H](CN(C)S(=O)(=O)c2cccs2)Oc2ccc(NS(=O)(=O)c3ccccc3)cc2C1=O,.,-5&-12,0&-8,-0.2&-6.5,-6.7,0,i,-2.0&-1.6,.
O=C(O)CC/C(=N\NC(=O)CNC(=O)c1cccc(Cl)c1)c1ccccc1,.,6,0,0.7,-5.5,-2,i,-3.1,.
C[C@@H]1CN([C@H](C)CO)C(=O)Cc2cc(NC(=O)Nc3ccc(C(F)(F)F)cc3)ccc2O[C@@H]1CN(C)S(=O)(=O)c1cn(C)cn1,.,-5,-13,-1.5,.,.,i,0.6,.
Cc1ccccc1C(=O)Nc1nnc(-c2ccco2)s1,0.72,19,18,3.9,0.0,7,i,-1.2,-7%
CCCN1C(=O)C(O)(C2COC(C)(C)CC2=O)c2ccccc21 (centres undefined),0.7,16,2,0.8,-0.7,5,i,-1.5,.
Cn1c(=O)c(=O)n(C)c2cc(S(=O)(=O)N3CCCC3C(=O)NCc3cccs3)ccc21 (centres undefined),0.67,5,0,-4.0,2.6,-2,i,?,7%
COc1ccc(S(=O)(=O)N2CCC[C@H]2C(=O)N2CCC[C@H]2C(=O)NCc2ccccc2)cc1C,.,3,-5,0.5,-2.9,.,i,-0.5,.
O=C(c1ccc(N2CCOCC2)c([N+](=O)[O-])c1)N1CCCCC1,0.68,12,3,3.0,3.0,-4,i,-0.8,-1%
CCOc1ccc(S(=O)(=O)N2CCN(C3CC(=O)N(c4cccc(C(C)=O)c4)C3=O)CC2)cc1 (centres undefined),0.63,8,14,6.4,0.1,.,i,-6.9,.
COc1ccc(OC)c(/C=N\NC(=O)CC(=O)NCCc2ccccc2)c1,.,5,3,-2.8,3.0,-1,i,-0.4,.
CC1CCCC(C)N1NC(=S)Nc1ccc(OC(F)F)cc1 (centres undefined),0.7,.,.,.,-3.5,2,.,.,.
c1ccc(CCn2nnc3ccccc32)cc1,0.68,6,8,0.2,0.1,-6,i,11,5%
CCS(=O)(=O)N1CCN(C2CCC(C)CC2)CC1 (centres undefined),0.65,.,.,.,-1.6,-1,.,.,2%
CCCCN(CC)CCCNC(=S)Nc1ccc2nc(N3CCN(CC)CC3)cc(C)c2c1,0.67,3,-4,-4.8,0.7,-8,i,5.1,?
CCC(=O)c1coc2ccc(O)cc12,0.68,.,.,.,3.4,-15,.,.,13%
CCCn1c(SCC(=O)NCc2ccc(F)cc2)n[nH]c1=O,0.69,12,10,2.2,3.8,-4,i,-2.0,.
COc1cc(/C=C2/C(=O)ON=C2c2ccccc2)ccc1O,.,.,.,.,0.1,95*,.,.,8%
CCCN(C)C[C@H]1Oc2ncc(-c3ccccc3OC)cc2C(=O)N([C@H](C)CO)C[C@@H]1C,.,-1,-1,-1.9,.,.,i,2.0,.
O=C(CCC(=O)N1CCOc2ccc(Cl)cc21)NCCCN1CCN(Cc2ccccc2)CC1,0.76,4,11,0.1,-1.0,-35,i,4.1,.
NS(=O)(=O)c1ccc(CCNc2nc(C(F)(F)F)nc3ccccc23)cc1,0.69,-11,-15,-0.3,4.7,-2,i,0.0,0%
COc1cccc(CN2CC3(CCN(CC4CCOCC4)CC3)c3c([nH]c4cc(OC)ccc34)[C@@H]2CO)c1,.,5,3,1.1,.,.,i,-3.5,.
CO[C@H]1CN(C)C(=O)c2cc(NC(=O)C3CC3)ccc2OC[C@H](C)N(Cc2nccs2)C[C@@H]1C,.,1,4,0.8,.,.,i,0.3,.
O=C(c1cc(-c2ccncc2)nc2ccccc12)N1CCN(c2ccccc2O)CC1,0.69,-12,-5,0.2,1.0,46,.,4.6,.
CCC(=O)N(C)C[C@H]1Oc2cc(-c3ccc(C#N)cc3)ccc2S(=O)(=O)N([C@H](C)CO)C[C@@H]1C,.,-6,-8,0.4,.,.,i,-1.2,.
O=C(NC[C@@H]1[C@@H](c2ccccc2)[C@H](CO)N1C(=O)Cc1cccnc1)C1CC1,.,3,5,-1.5,.,.,i,-1.3,.
CCC1CN(C(=O)Nc2cccc(C)c2)c2cc(C)ccc2O1 (centres undefined),0.6,-21,-19,-0.9,-0.6,-2,i,6.5,-1%
O=C(C[C@@H]1CC[C@@H]2[C@H](COC[C@@H](O)CN2Cc2cccc(C(F)(F)F)c2)O1)NCCc1ccncc1,.,1,-4,-2.9,.,.,i,-1.0,.
Cn1c(C(=O)NCCCN2CCN(c3ccccc3F)CC2)cc2c(=O)[nH]c3ccccc3c21,0.68,.,.,.,2.5,.,.,.,-11%

# Rewritten as labelled records: entries from further up.
canonical_smiles: COc1ccc(NC(=O)N(C)C[C@H]2Oc3ccc(NS(=O)(=O)c4ccc(F)cc4)cc3C(=O)N([C@@H](C)CO)C[C@H]2C)cc1
  Ecoli growth: .; rRNA inh HTS: 0; rRNA inh HTS OD600: 1; rRNA inh HTS RFP: -1.2; HNF4A DNA FP: .; ALR H2O2 inh: .; FGF22 binding: i; MLL AF4-AF9 inh: -2.3; Vif A3G: .

canonical_smiles: Cc1cccc(N2C(=O)CC(N3CCOCC3)C2=O)c1 (centres undefined)
  Ecoli growth: 0.8; rRNA inh HTS: .; rRNA inh HTS OD600: .; rRNA inh HTS RFP: .; HNF4A DNA FP: -0.7; ALR H2O2 inh: -7; FGF22 binding: .; MLL AF4-AF9 inh: .; Vif A3G: -2%

canonical_smiles: CCOC(=O)N1CCC(NC(=O)CSc2cc(=O)n(CC)c3ccccc23)CC1
  Ecoli growth: 0.7; rRNA inh HTS: .; rRNA inh HTS OD600: .; rRNA inh HTS RFP: .; HNF4A DNA FP: 5.1; ALR H2O2 inh: -6; FGF22 binding: .; MLL AF4-AF9 inh: .; Vif A3G: 17%

# Record cards, as listed above.
# `CCCn1c(SCC(=O)NCc2ccc(F)cc2)n[nH]c1=O` reads Ecoli growth: 0.69; rRNA inh HTS: 12; rRNA inh HTS OD600: 10; rRNA inh HTS RFP: 2.2; HNF4A DNA FP: 3.8; ALR H2O2 inh: -4; FGF22 binding: i; MLL AF4-AF9 inh: -2.0; Vif A3G: .
# `CCCN(C)C[C@H]1Oc2ncc(-c3ccccc3OC)cc2C(=O)N([C@H](C)CO)C[C@@H]1C` reads Ecoli growth: .; rRNA inh HTS: -1; rRNA inh HTS OD600: -1; rRNA inh HTS RFP: -1.9; HNF4A DNA FP: .; ALR H2O2 inh: .; FGF22 binding: i; MLL AF4-AF9 inh: 2.0; Vif A3G: .

# Bioassay records from PubChem BioAssay.
